Mtb hypoxia rep: inhibitors of hypoxia-regulated fluorescent reporter in Mycobacterium tuberculosis | M. tuberculosis hypoxia-regulated fluorescent reporter, fluorescence | 300,000 compounds, 0.1% hits | fluorescence inhibition, % (no concentration beside the values);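 active means 35 to 45% if threefold the growth effect, above 45% if 1.5-fold the growth effect; inactive means the rest, general growth blockers included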;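 further: wells of about 50 µL received 100 nL stock; 0% = vehicle wells and 100% = reference inhibitor wells; whole bacteria with a GFP reporter of the hypoxia response; strong numbers were not always called active; many hits fall short of the cut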
Bead autofluor: counter-screen for toxin protease inhibitors: compound fluorescence; compound autofluorescence counterscreen, microsphere flow cytometry; active compounds read high; fluorescence intensity (concentration not given with the values); 360,000 compounds, 3.1% hits; AID 624483;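 active means at least 3 SD above the mean of all compounds, about 16000 in these data; inconclusive means too few beads counted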;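 further: 100 nL of 1 mM stock went into each well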
Sa ugtP lethal: growth inhibition of S. aureus ugtP deletion strain; S. aureus RN4220 ugtP deletion, OD600 growth, 16 h; some inactives read as strong as hits; growth inhibition, % (no concentration beside the values); 330,000 compounds, 0.54% hits; AID 1259309;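 active means z-score under -3 and OD600 up to 0.15 on both plates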;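 further: plate controls were untreated wells for no effect and antibiotic for full effect; wells of about 80 µL received 100 nL stock; the first replicate is given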
PrP 5UTR inh: suppresses PrP 5' UTR mRNA reporter expression. AID 488862. 340,000 compounds, 0.35% hits. inhibition, % (no concentration beside the values). cell-based PrP 5' UTR mRNA reporter, plate reader;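 active means every replicate at 50% or more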;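 further: 0 = median of the neutral control wells; tested in H4 reporter cells; numbers are from one replicate; inactives centre near -14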
RN4220 kill: S. aureus RN4220 growth inhibition; OD600, 16 h; inhibition, % (test concentration not listed); 330,000 compounds, 0.33% hits; AID 1259311;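 active means z-score of -3 or lower and OD600 up to 0.18 on both plates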;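 further: plate controls were untreated cells for no effect and reference antibiotic for full effect; stock transfer was 100 nL into about 80 µL; one replicate is shown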
BJeLR viability: BJeLR cell viability loss; inhibition, % (no concentration beside the values); BJeLR (HRASV12) viability, CellTiter-Glo ATP luminescence, 48 h; reference of the scale not given here; 300,000 compounds, 0.17% hits;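 active means replicate mean above 50%; inconclusive means above 50% but judged a plate artefact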;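 further: 50 nL library stock added to about 25 µL; numbers are from one replicate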
Mtb hypoxia rep growth: further read-out of Mtb hypoxia rep, marked with its call; growth inhibition, %; measured here: M. tuberculosis growth (absorbance);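 0% = vehicle and 100% = reference antibiotic; read after six days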
Starred values were filed as active, the others as inactive; ? = inconclusive; . = no result given.

Under each structure: Mtb hypoxia rep	Mtb hypoxia rep growth	Bead autofluor	Sa ugtP lethal	PrP 5UTR inh	RN4220 kill	BJeLR viability
- C[C@H](NC(=O)c1[nH]cnc1C(=O)Nc1ccc(Cl)cc1)C(=O)OC(C)(C)C
    .	.	3642	.	4.9	.	-16.8
- CCN1C(=O)[C@H]2[C@@H](c3ccc(C)cc3)N3C(=O)N(c4cccc(Cl)c4)C(=O)[C@@]3(CC)[C@H]2C1=O
    .	.	3961	.	-20.0	.	-1.2
- CC(C)(NO)/C(=N\O)c1ccc(Cl)cc1
    .	.	2847	.	1.5	.	-9.6
- Cc1ccc(-c2nc3cnccn3c2Nc2ccc3c(c2)OCO3)cc1
    -2.8	-2.3	5727	-13.1	-2.4	-12.8	-3.6
- CC(C)(C)c1ccc(-c2conc2N)cc1
    10.9	21.2	11594	24.3	-53.0	23.0	1.1
- Cc1[nH]c(=O)[nH]c(=O)c1S(=O)(=O)Nc1ccc(S(N)(=O)=O)cc1
    15.0	2.7	4200	-1.1	-19.1	1.2	-0.4
- O=C(O)c1cccc(NC(=S)NN=Cc2cccnc2)c1
    2.0	-1.0	.	-2.5	.	-0.4	.
- COc1ccc(/C=C/C(=O)Nc2cc(=O)n(C)c(=O)n2C)cc1
    4.5	0.9	2019	5.4	-46.5	4.4	-17.1
- C=CCn1c(SCC(N)=O)nnc1-c1ccccc1O
    -2.7	-1.5	3142	4.7	-12.6	6.2	-3.0
- O=c1[nH]c(O)c(N=Nc2cccc(S(=O)(=O)N3CCOCC3)c2)c(=O)[nH]1
    8.2	2.8	2274	4.3	-15.6	-0.1	-6.0

Entries of single compounds as entered above. Screens in order: Mtb hypoxia rep | Mtb hypoxia rep growth | Bead autofluor | Sa ugtP lethal | PrP 5UTR inh | RN4220 kill | BJeLR viability
O=C(O)c1cccc(NC(=S)NN=Cc2cccnc2)c1 as listed: 2.0 | -1.0 | . | -2.5 | . | -0.4 | .
C[C@H](NC(=O)c1[nH]cnc1C(=O)Nc1ccc(Cl)cc1)C(=O)OC(C)(C)C as listed: . | . | 3642 | . | 4.9 | . | -16.8

Taken from above:
Result for Cc1[nH]c(=O)[nH]c(=O)c1S(=O)(=O)Nc1ccc(S(N)(=O)=O)cc1 in Mtb hypoxia rep growth: 2.7
Result for CCN1C(=O)[C@H]2[C@@H](c3ccc(C)cc3)N3C(=O)N(c4cccc(Cl)c4)C(=O)[C@@]3(CC)[C@H]2C1=O in BJeLR viability: -1.2
Result for C=CCn1c(SCC(N)=O)nnc1-c1ccccc1O in RN4220 kill: 6.2
Result for CC(C)(C)c1ccc(-c2conc2N)cc1 in RN4220 kill: 23.0
Result for O=C(O)c1cccc(NC(=S)NN=Cc2cccnc2)c1 in Mtb hypoxia rep: 2.0

Continued.
Under each structure: Mtb hypoxia rep	Mtb hypoxia rep growth	Bead autofluor	Sa ugtP lethal	PrP 5UTR inh	RN4220 kill	BJeLR viability
- CC(C)(C)N1CC(C(=O)Nc2cccc(Cl)c2Cl)CC1=O (configuration not stated)
    1.3	2.3	2927	4.2	-1.9	2.4	-17.0
- Cc1ccnc(NC(=O)CCC(=O)N(CC(=O)NCc2ccc(F)cc2)Cc2ccccc2)c1
    -5.0	3.6	5698	3.8	-14.5	1.5	-1.0
- COC(=O)Nc1nc2ccc(Sc3ccccc3)cc2[nH]1
    9.8	2.2	4496	1.1	42.1	8.2	16.6
- CCc1ccc(S(=O)(=O)NC(=S)Nc2ccccc2)cc1
    -1.9	4.1	4679	-4.6	-15.6	0.5	5.5
- CCOC(=O)CSc1nnc(-c2cccnc2)n1Cc1ccccc1
    .	.	2397	-6.2	-19.5	-1.1	-8.1
- NC(=O)C1(N2CCCCC2)CCN(C(=S)NC2CCCC2)CC1
    -4.3	-4.2	2446	2.6	-3.6	1.0	-0.1
- O=C(c1ccc(-c2ccc(Cl)cc2Cl)o1)N1CCOCC1
    10.8	18.7	4020	-2.4	-61.5	8.1	-0.1
- CC(=O)N1CN2CN(C(C)=O)CC(C(=O)c3ccc(Br)cc3)(C2)C1
    6.8	6.9	3218	4.0	-17.8	8.5	3.2
- COc1cccc(CNc2nc(C(F)(F)F)nc3ccccc23)c1
    15.1	7.1	4858	-34.5	0.1	-18.5	-3.5
- CCOC(=O)N1CCC(NC(=O)c2cccc3c2C(=O)N(c2ccc(OC)cc2)C3)CC1
    -1.5	12.7	5190	-12.3	-43.3	-1.3	-3.3

(continued)
Under each structure: Mtb hypoxia rep	Mtb hypoxia rep growth	Bead autofluor	Sa ugtP lethal	PrP 5UTR inh	RN4220 kill	BJeLR viability
- CC1CCCC(NC(=O)COC(=O)c2ccc([N+](=O)[O-])o2)C1C (configuration not stated)
    14.0	13.0	3675	22.0	-30.5	6.2	.
- CC(=O)c1c(C)[nH]c(C(=O)NNC(=O)c2ccc(C)cc2)c1C
    8.5	9.5	.	2.6	.	12.0	.
- Cc1cc(C)c(S(=O)(=O)N(C)CC(=O)NCC2CCCO2)c(C)c1 (configuration not stated)
    -2.2	-7.3	4538	3.6	-12.7	2.8	-0.8
- CCCN1CNC(=S)N(c2cccc(C)c2)C1
    10.7	1.6	3962	1.3	-5.1	2.7	-10.0
- COC(=O)Cn1c(=O)c2c(nc(Br)n2CC(=O)OC)n(C)c1=O
    10.0	-1.5	22104*	5.1	-8.4	2.9	6.1
- Cc1ccc(C(=O)NNC(=O)CSc2nnc(C(C)C)n2C)cc1
    6.4	-1.3	3910	4.1	-17.8	2.7	-6.7
- CNC(=S)N1N=C(c2ccc(C)cc2)CC1c1ccc(Cl)cc1 (configuration not stated)
    1.7	-3.7	?	-6.7	-8.3	-4.9	-2.5
- COc1ccc(C2=NN(C(=O)CCC(=O)O)C(c3ccc(Br)cc3)C2)cc1 (configuration not stated)
    .	.	3813	.	-19.4	.	-11.2
- COC(=O)c1ccc(Cl)c(NC(=O)CN2CCC(C)CC2)c1
    12.5	5.6	10362	7.8	-28.8	6.8	-10.9
- O=C(/C=C/c1ccc2c(c1)OCO2)NCCSCc1cccc(Cl)c1
    15.2	9.7	10074	43.3	-26.7	-10.4	-12.8

More compounds
SMILES,Mtb hypoxia rep,Mtb hypoxia rep growth,Bead autofluor,Sa ugtP lethal,PrP 5UTR inh,RN4220 kill,BJeLR viability
N#C/C(=C\c1ccc(N2CCCCC2)o1)C(=O)Nc1cccc(Br)c1,-20.6,9.2,12888,-0.6,-123.7,0.5,.
COc1ccc(/C=N/NC(=O)CNC(=O)c2ccc(S(=O)(=O)N3CCOCC3)cc2)c(OC)c1,.,.,7072,.,-0.8,.,22.2
COc1ccc(NC(=O)CN(C)C(=O)CNC(=O)c2ccc3c(c2)OCO3)cc1,4.2,-0.5,5762,-3.9,-13.5,7.2,-7.8
Cc1ccc(Oc2ccc(N)cc2)cc1,-0.4,0.8,3410,11.7,-8.9,11.4,-5.4
CC1CCCCC1NC(=O)NC(=O)COC(=O)C1=NN(c2ccccc2)C(=O)CC1 (configuration not stated),-13.9,-5.0,3954,-5.2,-26.8,-5.6,.
O=C(NN1CC(=O)N(c2cc(Cl)cc(Cl)c2)CC1=O)c1sccc1Cl,3.0,-0.3,6068,11.6,-25.3,3.7,-0.4
O=C(N/C(=C/c1ccc(Br)cc1)C(=O)N1CCOCC1)c1ccco1,-1.2,7.3,5317,-10.4,-13.3,-2.5,-13.1
O=C(CS(=O)CC(=O)Nc1cnc2ccccc2c1)Nc1ccc(Cl)cc1 (configuration not stated),6.2,2.6,3627,6.8,-40.7,2.4,-9.2
COc1ccc(NC(=O)c2ccccn2)cc1S(=O)(=O)N1CCOCC1,6.4,-1.0,3692,8.3,5.3,3.2,-4.0
O=C1C2C3C=CC(C3)C2C(=O)N1Nc1ccccc1 (configuration not stated),16.3,8.3,6036,7.4,-21.8,4.1,-10.6
COc1ccc(S(=O)(=O)NC(CC(=O)NCCc2ccccc2)c2ccco2)cc1 (configuration not stated),3.3,4.6,4159,1.4,-6.7,2.4,-3.9
Fc1cc2[nH]cnc2cc1Cl,3.5,6.9,6190,8.1,-7.5,2.9,-7.3
O=C(Nc1ccccc1)OCN1C(=O)c2ccccc2C1=O,.,.,17484*,.,-31.3,.,-7.6
CN(C)c1ccc(C=NCCc2ccc(S(N)(=O)=O)cc2)cc1,8.5,12.6,4550,15.3,-27.4,5.7,-0.1
CCn1nc(C)c(/C=C/C(=O)Nc2ccc(C)cc2C)c1C,-14.0,-5.8,2035,0.6,-5.1,5.8,3.1

Other compounds
SMILES,Mtb hypoxia rep,Mtb hypoxia rep growth,Bead autofluor,Sa ugtP lethal,PrP 5UTR inh,RN4220 kill,BJeLR viability
Cc1cc(C(=O)Nc2c(F)cc(F)cc2Br)cs1,2.6,6.8,5705,5.3,-11.4,5.0,4.1
C/C(CC(=O)NC1CCCC1)=N\NC(=O)Cc1csc(N)n1,.,.,1997,.,1.7,.,-11.4
CCCCC(=O)N1CCN(c2nc3ccc(Cl)cc3s2)CC1,1.3,7.2,5660,3.0,-29.3,1.1,3.4
COc1ccc(CNc2nc(-c3cccnc3)nn2C(C)=O)cc1,10.5,0.2,4100,-1.5,-13.5,4.3,7.5
NC(=O)c1cc([N+](=O)[O-])ccc1N1CCN(Cc2ccccc2)CC1,1.2,6.5,3040,2.9,-28.3,1.9,-22.6
CCN(Cc1ccccc1)C(c1ccccn1)c1nnnn1C(C)(C)CC (configuration not stated),0.3,3.6,8165,6.5,-7.8,14.3,5.7
COc1cc(-c2nc(-c3cccc(C)c3)no2)cc(OC)c1OC,8.0,11.2,5619,6.2,-5.6,1.5,4.2
c1cncc(C(c2nnnn2C2CCCCC2)N2CCCCC2)c1 (configuration not stated),-4.1,-1.5,3752,-13.4,-5.8,1.5,11.3
O=C(CN(C(=O)c1csnn1)c1ccccc1C(F)(F)F)NC1CCCCC1,5.3,-5.6,2907,5.6,-9.4,2.8,-2.9
COc1ccc(C(CNC(=O)C2CC(=O)N(Cc3ccc(C)cc3)C2)N(C)C)cc1 (configuration not stated),-0.2,0.1,6384,-2.5,-51.2,5.8,-3.1
CN(c1ccc(OC(=O)CC2OC(=O)c3ccccc32)cc1)S(=O)(=O)c1ccccc1 (configuration not stated),-0.4,8.8,8294,2.0,-13.1,4.6,.
CCc1ccc(NC(=O)COc2coc(CN3CCc4ccccc4C3)cc2=O)cc1,9.9,-2.5,4455,3.3,-33.9,2.7,-4.3
COc1ccc(CNC(=O)CCCCCNc2nc(=S)[nH]c3ccccc23)cc1,3.6,10.8,3395,-4.6,-29.1,-11.7,1.5
Cn1cccc1C(=O)OCC(=O)NCCc1ccccc1,-1.3,2.5,2840,3.7,-17.1,2.8,.
COc1ccc2c(c1)C(=O)[C@@H](O)[C@H](c1ccc(OC)c(Br)c1)O2,.,.,4149,.,-5.2,.,2.8

(further entries)
SMILES,Mtb hypoxia rep,Mtb hypoxia rep growth,Bead autofluor,Sa ugtP lethal,PrP 5UTR inh,RN4220 kill,BJeLR viability
Cc1c(C)n2c(SCC(=O)N3CCC(C)CC3)nnc2[nH]c1=O,2.1,6.4,.,0.7,-10.8,4.5,-6.9
CCOC(=O)c1cnn(-c2cc(C)c3ccccc3n2)c1N,10.6,9.7,3422,-16.9,-11.7,10.5,-2.1
CCN(CC)S(=O)(=O)c1ccc(/C=C/C(=O)Nc2c(C)n(C)n(-c3ccccc3)c2=O)cc1,2.0,4.2,3491,-2.5,4.9,6.3,3.9
c1ccn2cc(CSC3=NCCS3)nc2c1,6.7,10.8,3261,-1.8,-51.9,-3.2,1.6
CC12CC(c3ccccc3O1)N(C(=O)c1ccco1)C(=O)N2c1ccccc1 (configuration not stated),.,.,2138,2.1,-14.9,-2.9,1.6
Cc1sc2ncnc(NCC3CCCO3)c2c1C (configuration not stated),7.6,2.8,3278,-4.6,-16.1,-15.2,3.6
Cc1cc(N2C(=O)[C@@H]3[C@H](C2=O)[C@@H]2C[C@H]3C(Br)C2Br)no1 (some centres not stated),-7.0,11.6,3435,-1.8,-7.4,-0.4,-4.2
COc1ccccc1-n1nnnc1SCC(=O)NC(=O)Cc1ccccc1,6.9,-0.3,.,1.0,.,1.2,.
O=S(=O)(c1ccc(F)cc1)N1CCN(c2nc(-c3cccnc3)nc3ccccc23)CC1,-3.1,10.9,?,-13.9,10.8,-2.1,.
COC(=O)CCS(=O)(=O)c1nc(-c2ccccc2)cc(C(F)(F)F)n1,8.8,19.8,21982*,22.2,16.7,13.8,2.7
CCC(=O)N1CCc2cc(S(=O)(=O)CCC(=O)Nc3cccc(F)c3)ccc21,.,.,4883,-0.2,-18.7,0.6,2.9
